Screening data (PubChem)
SARS PLP yeast: inhibitors of SARS-CoV papain-like protease in yeast; Potency, µM (highest dose often 32.9 µM), without a hit: at the top dose activity, positive = growth rescue; S. cerevisiae expressing SARS-CoV PLpro, growth rescue; control for the full effect not named in the record; hit rate 0.19% among 330,000; active means well fitted rising curve with a large enough effect; inconclusive means small, poorly fitted or top-dose-only effect; inactive means no such curve, though single readings can be large or run the other way; further: 0% is about no effect; nearly all actives have a fitted effect of over 55% in size; growth read by luminescence after 48 h
2A StopGo: lowers the luciferase signal of an FMDV 2A StopGo reporter | human cells with a luciferase reporter of 2A StopGo recoding; control for the full effect not named in the record | hit rate 1.2% among 410,000 | Potency, µM (doses to about 57.9 µM), inactives show top-dose signal change, negative = less light; active = well fitted falling curve with a large enough effect; inconclusive = small, poorly fitted or top-dose-only effect; inactive = no such curve, though single readings can be large or run the other way; tested in HEK293T cells; further: on the % scale 0 is the no-effect control and ±100 the full control effect; nearly all actives have a fitted effect of over 45% in size; luciferase light after 4 h
RE007 growth inh: less growth of the S. pombe RE007 Vpr strain; S. pombe RE007 Vpr strain, BacTiter-Glo ATP luminescence, 24 h; control for the full effect not named in the record; Potency, µM (highest dose often 92.2 µM), for the others: at the top dose activity change, negative = less growth; hit rate 0.21% among 360,000; AID 651644; active = well fitted falling curve with a large enough effect; inconclusive = small, poorly fitted or top-dose-only effect; inactive = no such curve, though single readings can be large or run the other way;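 further: on the % scale 0 is the no-effect control and ±100 the full control effect; nearly all actives have a fitted effect of over 50% in size; the assay follows cell death caused by Vpr and the record does not say whether a fall means rescue or toxicity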
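Fission yeast strain RE007, carrying one chromosomally integrated HIV-1 vpr copy, was seeded at OD 0.01 in PMG+AL medium with 23 nL pinned compound. After 24 h at 30 °C and 99% humidity, viability was read by BacTiter-Glo luminescence.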
Cruzain Triton: blocks cruzain activity in presence of Triton detergent; P25779; purified cruzain, Z-FR-AMC fluorescence, 0.01% Triton; Potency, µM, for the others: max response, negative = inhibition, most hits filed as inhibitors; hit rate 0.43% among 200,000;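 further: plate controls were neutral wells for no effect and buffer without enzyme for full effect; nearly all actives have a fitted effect of over 40% in size; top concentration of the series not given in the record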
Target sequence (P25779 123-467 limits assumed): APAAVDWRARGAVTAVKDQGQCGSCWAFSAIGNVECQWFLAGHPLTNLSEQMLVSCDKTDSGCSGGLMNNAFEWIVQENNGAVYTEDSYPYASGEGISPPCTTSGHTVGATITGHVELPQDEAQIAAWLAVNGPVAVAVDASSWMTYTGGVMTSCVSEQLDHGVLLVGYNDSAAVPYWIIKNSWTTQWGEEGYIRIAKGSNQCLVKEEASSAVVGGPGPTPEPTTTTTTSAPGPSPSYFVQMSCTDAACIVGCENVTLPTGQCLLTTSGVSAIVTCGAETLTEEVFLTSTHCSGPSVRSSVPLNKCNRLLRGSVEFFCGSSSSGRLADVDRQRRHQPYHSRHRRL
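Cruzain (1.5 nM) preincubated 15 min at RT with compound in 100 mM sodium acetate pH 5.5, 5 mM DTT, 0.01% Triton X-100. Reaction started with 2 uM Z-FR-AMC; AMC fluorescence (ex 360/em 450 nm) change over 60 s gave rate.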
MARV entry inh: blocks Marburg virus binding to or entry into cells; Marburg virus pseudotyped entry inhibition, cell reporter; control for the full effect not named in the record; about a third of the inactives were read at about 46 µM; hit rate 1.8% among 300,000; Potency, µM (highest dose often 37.8 µM), for inactives: at the highest dose activity change, negative = inhibition, hits mostly inhibitors; active = well fitted inhibition curve with a large enough effect; inconclusive = small, poorly fitted or top-dose-only effect, or effect the other way; inactive = flat fitted curve, though single readings scatter; tested in HEK293 cells; about a fifth of its hits are not listed in these tables; further: on the % scale 0 is the no-effect control and ±100 the full control effect; luciferase read-out
Lassa entry inh: inhibitors of Lassa virus binding or cell entry; Lassa virus pseudotype entry inhibition, cell reporter; control for the full effect not named in the record; Potency, µM (titrated, usually from 37.9 µM), inactives show at the top dose activity change, negative = inhibition, most hits filed as inhibitors; hit rate 1.2% among 300,000; AID 540256; active means well fitted inhibition curve with a large enough effect; inconclusive means small, poorly fitted or top-dose-only effect, or effect the other way; inactive means flat fitted curve, though single readings scatter; tested in HEK293 cells; further: on the % scale 0 is the no-effect control and ±100 the full control effect; nearly all actives have a fitted effect of over 50% in size; luciferase read-out
Cruzain noTriton: blocks cruzain activity in detergent-free assay | P25779 | purified cruzain, Z-FR-AMC fluorescence, no detergent | Potency, µM, for the others: max response, negative = inhibition, actives largely listed as inhibitors | hit rate 2.3% among 200,000 | AID 1476;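 further: plate controls were enzyme without inhibitor for no effect and buffer without enzyme for full effect; nearly all actives have a fitted effect of over 40% in size; top concentration of the series not given in the record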
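Detergent-free condition (0.00005% Triton X-100) in acetate buffer pH 5.5 with DTT. 1.5 nM enzyme and compound were pre-mixed 15 min, then 2 uM Z-FR-AMC substrate added; reaction progress from fluorescence change between first and third reads (60 s).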
NS1 function inh: inhibitors of influenza NS1 protein function; S. cerevisiae slowed by influenza A NS1, growth recovery by OD600; Potency, µM (highest dose often 46.1 µM), for the others: at the top dose activity, positive = more growth; hit rate 0.4% among 270,000; AID 2326; active means well fitted rising curve with a large enough effect; inconclusive means small, poorly fitted or top-dose-only effect; inactive means no such curve, though single readings can be large or run the other way; further: nearly all actives have a fitted effect of over 50% in size
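In this qHTS, NS1 from influenza A is expressed in budding yeast, where it slows growth. Cells are switched from glucose to 2% galactose medium (pH 6.0, -URA), treated with compound, and growth recovery is read at OD600.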
The depositor's hits bear a star; ? = inconclusive; . = not tested or not shown; [ ] = remark or other dose. Unless noted, the call rests on the fitted dose curve; in most records, active means well fitted curve in the direction sought with a large enough effect; inconclusive means small, poorly fitted or top-dose-only effect, or another doubt; inactive means no such curve, though single readings can be large; an effect the other way counts as inactive or inconclusive. Potency means the concentration at half of the fitted maximal effect.

SMILES	SARS PLP yeast	2A StopGo	RE007 growth inh	Cruzain Triton	MARV entry inh	Lassa entry inh	Cruzain noTriton	NS1 function inh
COc1ccc(-c2cc(C(F)(F)F)n3nc(C(=O)N4CCCCC4)cc3n2)cc1OC	11%	-23%	2%	-5.2%	?	?	?	8%
O=C(CSc1nnc(CNC(=O)c2c(F)cccc2Cl)o1)NCc1ccc(F)cc1	-3%	-4%	1%	.	?	-28%[46.1 µM]	.	-15%
Cc1ccsc1CNn1cnnc1SCc1ccccc1F	-1%	48%	16%	1.8%	-3%	-1%	-4%	-32%
O=C(COc1ccccc1)N/N=C/c1ccc(O[C@@H]2O[C@H](CO)[C@@H](O)[C@H](O)[C@H]2O)cc1	3%	-11%	-15%	-0.8%	?	?	9%	5%
Cc1cccc(NC(=O)CSc2nnnn2C)n1	?	14%	19%	1.2%	11%	-5%	-1%	0%
CCOC(=O)C1CCCN(S(=O)(=O)c2cccc3nsnc23)C1 (stereo not given)	-4%	-9%	7%	.	10%[46.1 µM]	1%[46.1 µM]	.	2%
CC(C)(O)C#Cc1ccc(CN2CCN(C3CCCC3)C(CCO)C2)cc1 (stereo not given)	1%	-21%	-3%	.	.	.	.	2%
Cn1c2ccccc2c2nnc(SC3CCOC3=O)nc21 (stereo not given)	-1%	23%	8%	-3.7%	3%	4%	-11%	-3%
CC(=O)Nc1ccc(/C=C/C(=O)c2ccc3c(c2)OCCO3)cc1	2%	-28%	-14%	.	1%[46.1 µM]	-25%	.	-16%
CC(=O)Nc1ccc(NC(=O)CSc2nnc3ccc(-c4ccccn4)nn23)cc1	0%	-21%	6%	.	-1%[46.1 µM]	26%	.	.
O=C(NCc1ccccc1)c1ccc(S(=O)(=O)NCc2ccco2)cc1	3%	8%	4%	.	-4%[46.1 µM]	4%	.	8%
Nc1nnnn1/N=C\c1ccc(Cl)c([N+](=O)[O-])c1	0%	-15%	-5%	0.0%	?	?	-11%	16%
Cc1ccc2nc(-c3ccc(NC(=O)CN(c4ccccc4C)S(C)(=O)=O)cc3)sc2c1	-3%	-14%	-21%	6.1%	?	?	11%	-3%
COc1ccc(OCCn2cncn2)cc1	0%	19%	18%	5.0%	10%	-11%	13%	2%
COc1ccc(N(CC(=O)N2CCOCC2)S(C)(=O)=O)cc1OC	-3%	6%	-2%	.	3%[46.1 µM]	13%[46.1 µM]	.	5%
COc1ccc(NC(=O)C2Cc3ccccc3N2C(=O)c2ccccc2)cc1OC (stereo not given)	.	-17%	.	8.7%	.	?	-4%	.
O=C(NCc1cnc2ccccn12)C1CCC(=O)N(Cc2ccccc2F)C1 (stereo not given)	1%	-6%	3%	.	15%	0%	.	-6%
Cc1oc2ccc(O)c(CN3CCOCC3)c2c1C(=O)c1ccc(Cl)cc1	9%	?	3%	-4.8%	?	?	3%	-41%
O=C(NN=C1CCCC1)c1ccc(Br)cc1	-3%	6%	-23%	.	3%	?	.	-5%
O=C1c2oc3ccccc3c(=O)c2C(c2ccccc2F)N1Cc1ccc2c(c1)OCO2 (stereo not given)	.	35%[activator]	.	-0.8%	21%[46.1 µM]	12%[46.1 µM]	-1%	.
CC(C)CCc1noc(CN2CCC(CCN3CCCC3=O)CC2)n1	0%	18%	2%	.	3%[46.1 µM]	-9%	.	-5%
NNC(=O)c1cn2ccccc2n1	3%	53%[activator]	17%	3.1%	?	30%	11%	1%
CC(C)NC(=O)c1noc2cc([N+](=O)[O-])ccc12	7%	28%	-22%	3.3%	1%	18%	-8%	-3%
NS(=O)(=O)c1ccc(CCNCC(=O)NCc2ccccc2Cl)cc1	-3%	0%	10%	.	.	.	.	-1%
O=c1cc(NCC2CCCO2)[nH]c(=O)n1-c1ccc(Cl)cc1 (stereo not given)	-14%	.	10%	2.1%	6%	-5%	-8%	12%
CCCS(=O)(=O)N1CCC(C(=O)N2CCOCC2)CC1	1%	-6%	?	0.8%	5%	5%	5%	-8%
Cc1c(C(c2ccccc2)c2c(C)n(C)n(-c3ccccc3)c2=O)c(=O)n(-c2ccccc2)n1C	-5%	-3%	-6%	.	.	.	.	?
Cc1nc(NC(=O)c2ccc(Br)o2)sc1C	-8%	13%	-29%	-5.8%	-3%	-29%	-1%	-62%
CC1(C)CC(=O)c2cc(-c3nc(-c4ccc(Cl)cc4)cs3)c(=O)n(-c3cccc(F)c3)c2C1	.	8%	.	-2.1%	-7%[46.1 µM]	17%[46.1 µM]	-5%	.
CCC(C)NC(=O)CS(=O)Cc1nc(-c2ccccc2C)oc1C (stereo not given)	-5%	-1%	-21%	-6.5%	.	.	6%	2%
COc1ccc2oc3cc(C)[n+]([O-])c(-c4ccc(C)cc4)c3c2c1	-2%	25µM*	4%	0.1%	?	?	-5%	-14%
Cc1cc(C(=O)N/N=C/c2ccc(-c3cccc([N+](=O)[O-])c3)o2)n[nH]1	-10%	-18%	10%	.	28%[46.1 µM]	-8%[46.1 µM]	.	-8%
COc1ccc(N2C(=O)C(F)(F)C2c2cccc(F)c2)cc1 (stereo not given)	0%	-16%	-3%	.	15%	-3%	.	.
Cc1ccccc1OCc1nnc(SCC(=O)Nc2ccc3nc(SCC(=O)Nc4ccccc4)sc3c2)n1C	5%	0%	15%	0.1%	?	?	25µM*	2%
O=C(CSC1c2ccccc2C(=O)N1c1ccccc1)N1CCOCC1 (stereo not given)	21%	7%	3%	0.2%	-5%	5%	11%	1%
CCc1ccc(OCCCCCn2ccnc2)cc1	-5%	-12%	-19%	.	-30%	-11%	.	-20%
O=C1CN(C(=O)c2ccc(S(=O)(=O)N3CCCCC3)cc2)C(c2ccc(F)cc2)c2cc(Cl)ccc2N1 (stereo not given)	.	?	.	-5.2%	8.9µM*	?	-17%	.
N#CC(C#N)=NNc1ccc([N+](=O)[O-])cc1	-14%	-21%	6%	.	?	?	.	-70%
CN(CCC1CCCCO1)C(=O)CCc1nnc(CCc2ccccc2)o1 (stereo not given)	2%	56%[activator]	0%	.	?	30%	.	9%
O=C(O)c1ccccc1-c1ccccc1C(=O)Nc1cccc(-c2nc3ccccc3o2)c1	0%	18%	11%	.	21%[46.1 µM]	16%[46.1 µM]	.	18%
Cc1cn2c(=O)cc(COc3ccc(Cl)cc3)nc2s1	.	-9%	.	-0.4%	-4%[46.1 µM]	33%[46.1 µM]	-5%	.
COCCCNc1nc2c(c(=O)[nH]c(=O)n2C)n1CCCc1ccccc1	-4%	1%	26%	0.2%	21%	2%	-7%	-5%
COC(=O)CSc1c(-c2ccccc2)c2cc(Cl)ccc2[nH]c1=O	2%	-17%	1%	-4.8%	6%	0%	?	18%
CCOC(=O)CSc1nc(C)nc2c1sc1nc(C)c(C(C)=O)c(-c3ccc(OC)cc3)c12	10%	0%	-20%	-2.1%	4%	?	4%	5%
Cc1ccccc1NC(=O)c1ccc2nccnc2c1	0%	?	4%	.	7%[46.1 µM]	14%[46.1 µM]	.	-7%
Cc1nn(-c2ccc(N3CCCCC3)nn2)c(C)c1CCC(=O)NCc1ccc(Cl)cc1	.	0%	.	3.9%	.	?	?	.
COc1ccc(CCC(=O)N2CCN(c3ccc(OC)cc3)CC2)cc1	1%	0%	-7%	.	4%[46.1 µM]	-20%[46.1 µM]	.	-11%
CCn1cc(C(=O)OCC(=O)Nc2cccc(C)c2)c(=O)c2ccc(C)nc21	0%	49%[activator]	8%	.	6%[46.1 µM]	13%[46.1 µM]	.	-13%
O=C(COc1ccccc1O)c1cccs1	0%	25%	1%	-5.7%	3%	0%	-1%	8%
CC(C)[C@H](NC(=O)NCc1cccs1)C(=O)O	5%	1%	-3%	0.8%	14%	?	-9%	1%

New compounds follow:
SMILES	SARS PLP yeast	2A StopGo	RE007 growth inh	Cruzain Triton	MARV entry inh	Lassa entry inh	Cruzain noTriton	NS1 function inh
CCCCN(C)C(=O)CCC(=O)Nc1ccc2nc(N3CCOCC3)cc(C)c2c1	0%	18%	2%	0.4%	20%	14%	-10%	-5%
C[C@]12C=C[C@H](O)CC1=CCC1C2CC[C@@]2(C)C1CCC21OCCO1 (stereo not given in full)	-27%	-27%	0%	.	?	10%[46.1 µM]	.	.
CCCC(=O)Nc1cc(OC)c(NC(=S)Nc2ccc(CC)cc2)cc1OC	.	-3%	6%	.	?	?	.	.
O=C(NC1CCCCCCC1)C1=COCCO1	-2%	17%	-6%	-2.7%	-4%	22%	1%	-1%
CCOc1ccc(CCNC(=O)c2ccc3c(=O)[nH]c4c(C(=O)NC(C)C)sc(=S)n4c3c2)cc1	-5%	?	5%	.	.	.	.	6%
COc1ccccc1CNc1ncnc2cc(Cl)ccc12	1%	?	0%	.	?	8%	.	-2%
Cn1c(N)c(C(=O)COC(=O)/C=C/c2cccc(F)c2)c(=O)n(C)c1=O	-1%	-2%	0%	.	-13%	-8%	.	.
NNC(=O)C1CC1c1ccccc1 (stereo not given)	4%	-19%	14%	2.0%	?	?	10%	22%
Fc1ccc(-c2nnn(Cc3ccccc3Cl)n2)cc1	-4%	52%[activator]	14%	.	?	?	.	-4%
Cc1ccc(C(=O)O)cc1-c1ccc(C=C2C(=O)c3ccccc3C2=O)o1	0%	-9%	-3%	.	-6%[46.1 µM]	-1%	.	.
CCOC(=O)c1sc(NC(=O)C(CC)Sc2nc3ccccc3[nH]2)nc1C (stereo not given)	.	?	-17%	.	-1%	?	.	.
Cc1cc2c(ncn2C)c(NS(=O)(=O)c2ccc(Cl)cc2)c1C	0%	-6%	10%	.	19%[46.1 µM]	0%[46.1 µM]	.	.
Cc1ccccc1NS(=O)(=O)c1ccc(C(=O)N2CCN(c3ccccn3)CC2)cc1	-7%	-20%	3%	.	?	-19%[46.1 µM]	.	.
CCOC(=O)/C=C1\CC(C(=O)OCC)Oc2ccccc21 (stereo not given)	-6%	-7%	-15%	0.0%	.	.	3%	.
